# EPAC2 antag = EPAC2 (human) antagonism. Q8WZA2. EPAC2 GEF exchange of Rap1B-BODIPY-GDP, fluorescence. Potency, µM (highest dose often 114 µM), for inactives: at the highest dose activity, negative = inhibition, hits mostly inhibitors. 360,000 tested, 0.18% active. AID 720708; active means well fitted inhibition curve with a large enough effect; further: nearly all actives have a fitted effect of over 45% in size; many of its hits are not listed in these tables
# Target sequence (Q8WZA2 whole entry, looked up): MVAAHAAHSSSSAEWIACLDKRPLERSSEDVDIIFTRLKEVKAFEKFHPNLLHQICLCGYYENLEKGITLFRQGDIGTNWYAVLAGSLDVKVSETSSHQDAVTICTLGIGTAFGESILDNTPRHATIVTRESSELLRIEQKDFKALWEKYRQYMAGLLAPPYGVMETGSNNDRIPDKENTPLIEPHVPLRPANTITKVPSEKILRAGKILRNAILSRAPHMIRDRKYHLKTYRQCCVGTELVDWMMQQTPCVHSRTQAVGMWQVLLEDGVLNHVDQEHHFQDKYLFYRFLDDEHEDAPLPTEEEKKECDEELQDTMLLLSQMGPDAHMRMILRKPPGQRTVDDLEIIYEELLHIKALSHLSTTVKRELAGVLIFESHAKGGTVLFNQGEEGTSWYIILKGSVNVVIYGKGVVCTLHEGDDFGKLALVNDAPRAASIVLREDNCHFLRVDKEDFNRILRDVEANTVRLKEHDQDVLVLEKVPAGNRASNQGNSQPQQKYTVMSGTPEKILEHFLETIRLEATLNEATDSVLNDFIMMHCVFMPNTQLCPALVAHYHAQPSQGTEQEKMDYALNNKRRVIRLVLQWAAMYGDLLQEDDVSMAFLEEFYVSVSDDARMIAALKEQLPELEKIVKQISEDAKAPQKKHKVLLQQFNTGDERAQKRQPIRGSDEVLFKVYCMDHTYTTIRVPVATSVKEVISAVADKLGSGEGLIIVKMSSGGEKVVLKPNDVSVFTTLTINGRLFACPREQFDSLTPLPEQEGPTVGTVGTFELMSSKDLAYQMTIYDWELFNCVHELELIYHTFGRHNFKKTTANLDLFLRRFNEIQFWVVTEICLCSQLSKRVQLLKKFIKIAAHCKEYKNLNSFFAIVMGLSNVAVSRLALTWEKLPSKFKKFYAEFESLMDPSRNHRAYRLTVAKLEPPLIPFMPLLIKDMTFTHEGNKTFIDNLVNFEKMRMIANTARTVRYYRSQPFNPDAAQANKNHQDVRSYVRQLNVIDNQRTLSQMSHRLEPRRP
# * = called active by the depositor. On the % scale 0 is the no-effect control and ±100 the full control effect; potency means the concentration at half of the fitted maximal effect.
SMILES,EPAC2 antag
O=C(C=Cc1cccs1)c1ccccc1,2%
O=C(O)CC(O)(CC(=O)O)C(=O)O,10%
Nc1nc(Cl)c(N)c(NCC2(CO)CC(CCc3ccccc3)C2)n1 (centres undefined),8%
CC[n+]1c(/C=C/N(C)c2ccccc2)oc2ccccc21,10%
CN[C@@H]1CC[C@H](c2ccc(Cl)c(Cl)c2)c2ccccc21,10%
CN1CCN(C(=O)c2ccc(NS(=O)(=O)c3ccccc3)cc2)CC1,6%
Cc1noc(NS(=O)(=O)c2ccc(N)cc2)c1C,5%
CN(C)CCCN1c2ccccc2Sc2ccc(C(F)(F)F)cc21,1%

# Three compounds from above, sorted by the number in EPAC2 antag, highest first:
SMILES | EPAC2 antag
CN[C@@H]1CC[C@H](c2ccc(Cl)c(Cl)c2)c2ccccc21 | 10%
Nc1nc(Cl)c(N)c(NCC2(CO)CC(CCc3ccccc3)C2)n1 (centres undefined) | 8%
Cc1noc(NS(=O)(=O)c2ccc(N)cc2)c1C | 5%

# Part of the list above, reformatted.
structure | EPAC2 antag
CN1CCN(C(=O)c2ccc(NS(=O)(=O)c3ccccc3)cc2)CC1 | 6%
Cc1noc(NS(=O)(=O)c2ccc(N)cc2)c1C | 5%

# Screening results as filed in PubChem.

# An excerpt; most or all hits stand in other tables.
